# AID504770: growth inhibitors of E. coli YBA685 in a screen for V. cholerae RctB (chromosome II replication) inhibitors. E. coli YBA685 rctB-dependent plasmid, OD600 growth, 3 h; active compounds read low. z-score (no concentration beside the values). 130,000 compounds, 0.27% hits. AID 504770;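 active = z-score under -2 on both plates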;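 also: wells of about 30 µL received 100 nL stock; score is relative to mean and SD of the test wells; the first replicate is given; strong numbers were not always called active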
# CapD inh: inhibitors of Bacillus anthracis CapD enzyme; purified CapD enzyme, fluorescence intensity read-out; active compounds read low; some hits fall short of the stated cut; z-score (test concentration not listed); 140,000 compounds, 0.23% hits;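 active = z-score under -4 in either of two replicates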;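 also: stock transfer was 100 nL into about 40 µL; score is relative to mean and spread of the plate; one replicate is shown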
# * hit, by the source's call; . = not tested or not shown; & = joins results of further samples.
compound	CapD inh	AID504770
CCOC(=O)c1c(NC(=O)C23CC4CC(CC(C4)C2)C3)sc(C(=O)Nc2ccccc2OC)c1C	0.62	.
O=C(CN1C(=O)/C(=C/c2ccccc2)SC1=S)NC1CCCC1	3.4	1.1
N#Cc1cn[nH]c1C(F)(F)F	-0.37	0.45
COC(=O)c1ccccc1NC(=O)c1cc(-c2ccc(C)s2)nc2ccccc12	6.2	.
CC(=C1C(=O)c2ccccc2C1=O)N1CCC(Cc2ccccc2)CC1	-1.4	0.2
O=C(Cn1sc2ccccc2c1=O)N1CCN(C(=O)c2ccco2)CC1	-0.44	-0.35
CCCCn1c2ccccc2c2n[nH]c(=S)nc21	0.24&0.27	1.4&-0.4
O=C(Cn1c2ccccc2c(=O)c2ccccc21)Nc1cc(Oc2ccc(Cl)c(Cl)c2)cc([N+](=O)[O-])c1	0.81	.
CCS(=O)(=O)c1ccc(O)c(NC(=O)c2cccs2)c1	-0.83	-1.4
Cc1ccc([N+](=O)[O-])cc1N1C(=O)C2C3c4ccccc4C(c4ccccc43)C2C1=O (stereo not given)	0.15	.
O=C(Cc1ccccc1)Nc1nnc(SCC(=O)N2CCCc3ccccc32)s1	0.035	-1.3
Nc1[nH]nc2nc(N3CCCC3)nc(-c3ccccc3)c12	-0.54	-1.5
O=C1C=C2C=CC3CC2(O1)C1CCCCN31 (stereo not given)	0.24	-0.7
CC1CN(C(=O)c2cc(-c3ccc(Cl)cc3)cs2)CC(C)O1 (stereo not given)	-0.16	.
COC(=O)C1=C(C)NC(=S)NC1c1cc2c(cc1Br)OCO2 (stereo not given)	0.43	-0.35
COc1ccc2c(c1OC)C(=O)OC2NC(=O)c1cnn(-c2ccccc2)c1N (stereo not given)	-0.79	1.1
O=S(=O)(c1cccc2nonc12)N1CCCCC1	-0.79	.
CCc1ccc(NC(=O)Cn2cnc3c(cnn3-c3ccccc3)c2=O)cc1	-0.14	0.1
O=c1[nH]c(-c2ccc(O)cc2)nc2ccccc12	-0.095	0.1
Nn1c(COc2ccc(F)cc2)n[nH]c1=S	.	-0.35
CCOc1ccc(N=CC=C2OC(C)(C)C(C)(C)O2)cc1	1	0.3
COc1cc(-c2nc(C=Nc3ccccc3Br)c(O)o2)cc(OC)c1OC	-0.29	.
COc1ccc(Cl)cc1NC(=O)C1=C(C)NC(=S)NC1c1ccccc1OC (stereo not given)	-0.37	.
CCOC(=O)c1[nH]c(CN(C)Cc2nc3ccccc3c(=O)[nH]2)c(C(=O)OCC)c1C	.	2.3
CC1(C)CC(=O)C2=C(C1)OC(N)=C(C#N)C2c1ccoc1 (stereo not given)	0.66	1.2
CCCCc1ccc(NC(=O)c2c(Cl)nc3sccn23)cc1	.	-0.15
Cc1cc(N2C(=O)CSC23C(=O)Nc2ccccc23)ccc1Cl (stereo not given)	-0.61	.
O=C(O)c1c(CN2CCN(c3ccccc3)CC2)c(O)c2ccccc2c1O	.	1.5
CCOC(=O)/C=C(\C)Nc1cccc(N/C(C)=C/C(=O)OCC)c1C	27	-0.95
CC1(C2(O)CCCCC2)NCCc2ccccc21 (stereo not given)	0.29	1.1
CN(C)c1ccc(NC(=O)c2c3c(nc4ccccc24)CCCC3)cc1	-0.34	0.2
CN=C(C)/C(C(=O)OC)=C(/O)c1ccc(Cl)cc1Cl	9.7	-0.65
Fc1ccccc1N1CCN(c2nc(CN3CCOCC3)nc3sc4c(c23)CCCC4)CC1	.	-0.9
COc1cc(CO)ccc1Oc1nnnn1-c1ccc(C(N)=O)cc1	-0.53	-1.1
O=C(Nc1cccnc1Cl)c1cc2nc(-c3ccc(F)cc3)cc(C(F)(F)F)n2n1	-0.045	.
O=c1cc(-c2ccccc2)nc(N2CCc3ccccc32)[nH]1	1.6	0.15
COCCNC(=O)c1ccc(CN2CCOCC2)cc1	.	-0.6
O=C(NC1CCCCC1)Oc1cc2oc(=O)sc2cc1Cl	6.1	-1.5
O=c1/c(=C/c2cccc(Cl)c2)sc2nc(-c3ccccc3)c(-c3ccccc3)n12	-0.4	.
CCCNC(=O)C12CC3CC(C1)CC(C(=O)NCCC)(C3)C2	0.2	0.6
c1ccc(CC2CCN(Cc3nnc(-c4ccccc4)o3)CC2)cc1	0.15	-0.8
COC(=O)CCC(CCC(=O)OC)(C(C)=O)C(=O)OC	-0.4	.
COc1ccccc1CC(=O)NC1CC2CCC(C1)N2C (stereo not given)	0.65	-0.1
Fc1cnc(Nc2ccccc2)nc1N1CCOCC1	0.45	-0.35
COc1ccc(-c2cnc(N3CCN(C)CC3)nc2)cc1	4.1	.
CC(C)n1c2ccccc2c2ccccc21	5	0.55
Cc1cccc(NC(=O)c2ccc3c(=O)n(CC4CCCO4)c(=S)[nH]c3c2)c1 (stereo not given)	-0.08	.
COC(=O)c1ccc2c(=O)n(CCc3ccc(S(N)(=O)=O)cc3)c(SCC(=O)Nc3ccccc3Cl)nc2c1	0.8	.
c1ccc(-c2csc(NC3CCCCC3)n2)cc1	.	-0.45
COc1ccc(N(CC(=O)Nc2ccc(Br)cc2)S(=O)(=O)c2ccc(C)cc2)cc1OC	-0.34	.
N#Cc1c(-c2ccccc2)[nH]c(=S)[nH]c1=O	-6.1*	0.1
CCN(CC)c1ccc2cc(S(=O)(=O)c3ccc(F)c(Cl)c3)c(=O)oc2c1	-0.05	0.15
O=C1NCCCCC1N=CNO (stereo not given)	0.17	-0.1
CCCCNC(=O)c1cn(C2CCCC2)c(=O)c2c1c1ccccc1n2C	7.8	-0.75
O=C(O)c1cnn2c(-c3ccccc3)ccnc12	.	-0.4
O=C(Sc1ccccn1)c1cnn(-c2ccccc2)c1C(F)(F)F	0.51	0.7

# The results go on.
compound	CapD inh	AID504770
O=c1[nH]ncn2nc(-c3ccc(F)cc3)cc12	-0.41	2
CC1(C)CC(=O)C2=C(C1)Nc1ccccc1N(C(=S)Nc1cccc(Cl)c1)C2c1ccco1 (stereo not given)	-0.03	1.6
COc1ccc(C#N)cc1	.	-1.4
Cc1ccc(N2C(=O)C3ON(c4ccccc4)C(c4ccco4)C3C2=O)cc1 (stereo not given)	0.02	-1.1
Cn1c(=NC(=O)C2CC(=O)N(c3ccc4c(c3)OCCO4)C2)sc2ccccc21 (stereo not given)	.	-0.65
CCN(CC)S(=O)(=O)c1ccc2oc(SCC(=O)c3cc4ccccc4o3)nc2c1	.	0.05
CC1(O)N(CCCCCCN2C(=O)OC3(CCCCC3)C2(C)O)C(=O)OC12CCCCC2 (stereo not given)	-0.51	.
CC1CN(C(=O)c2cccc3c2-c2ccccc2C3=O)CC(C)O1 (stereo not given)	-0.44	0.3
Cc1cccc(-c2nc(C#N)c(NCC(C)C)o2)c1	71	-1
O=C1Nc2ccc(S(=O)(=O)N3CCCC3)c3cccc1c23	.	1.8
CC(C)c1ccc(NC(=O)Cc2nn(C)c(=O)c3ccccc23)cc1	.	1.6
CC1(C)CC(=O)c2cc(-c3ccccc3)n(-c3ccc(S(N)(=O)=O)cc3)c2C1	0.55	-0.45
C=C(C)CSCc1nc2ccccc2[nH]1	2.5	-2
COc1ccc(C2/C(=C(\O)c3ccc(Cl)cc3)C(=O)C(=O)N2c2ccc(Br)cn2)cc1 (stereo not given)	-0.32	.
Cc1cccc(Nc2nnc(SCC(=O)Nc3cc(Cl)ccc3C#N)s2)c1	.	0.15
CCOC(=O)CC1C(=O)NCCN1S(=O)(=O)c1ccccc1Cl (stereo not given)	-0.94	.

# Brought forward from above: four compounds; new compounds follow.
compound	CapD inh	AID504770
C=C(C)CSCc1nc2ccccc2[nH]1	2.5	-2
COc1ccc(C2/C(=C(\O)c3ccc(Cl)cc3)C(=O)C(=O)N2c2ccc(Br)cn2)cc1 (stereo not given)	-0.32	.
Cc1cccc(Nc2nnc(SCC(=O)Nc3cc(Cl)ccc3C#N)s2)c1	.	0.15
CCOC(=O)CC1C(=O)NCCN1S(=O)(=O)c1ccccc1Cl (stereo not given)	-0.94	.
CS(C)(=O)=NC(=O)c1cnn2c(C(F)(F)F)cc(C(F)(F)F)nc12	0.055	-0.25
Cn1c(C2CCCCC2)nc2ccccc21	.	1.2
O=c1c2ccccc2nc2n1CCS2	.	-0.7
CCOC(=O)C1=C(C)N=c2s/c(=C/c3ccc(OC)c(OC)c3)c(=O)n2C1c1ccc(OC(C)=O)c(OC)c1 (stereo not given)	-1.7	.
Cc1nc2c3ccccc3nc(NNC(=O)CCC(=O)NC3CCCC3)n2n1	-0.35	-0.05
S=c1[nH]ccn1-c1cc(Cl)ccc1Cl	0.2	.
CN(C)CCN1C(=O)C(=O)/C(=C(/O)c2ccc(Cl)cc2)C1c1cccs1 (stereo not given)	-0.82	-0.35
CC(=O)Nc1cc(-c2ccccc2)[nH]n1	-0.02	-0.55
CCC(=O)NCCCc1nc2ccccc2n1C(C)C	-0.01	-0.05
COc1ccc(S(=O)(=O)Nc2cccc3cc(C(=O)N4CCN(C(c5ccccc5)c5ccccc5)CC4)[nH]c23)cc1	-0.25	.
COc1ccc(Oc2ncccc2NC(=O)c2ccccc2C(F)(F)F)cc1	-0.045	1.1
CC(=O)N1CCC(C(=O)Nc2ccccc2)(N(Cc2ccccc2)C(=O)c2cccnc2)CC1	.	0.7
CCCCNC(=O)c1cc(=O)[nH]c2ccc(S(=O)(=O)N3CCC(C)CC3)cc12	0.85	-0.05
CCN1C(=O)/C(=C\c2ccc(NC(=O)C(F)(F)F)cc2)SC1=S	0.27	-0.25
COC(=O)c1sccc1NC(=O)Nc1ccccc1F	1.6	0.45
CN(C(=O)/C=C/c1cccs1)c1ccccc1	.	-1.1
CC1=C(C(=O)NCc2ccccc2)C2(CCCCCC2)OC1=O	-0.045	-0.9
O=C(O)c1cc(S(=O)(=O)NN(Cc2ccccc2)c2ccccc2)ccc1O	.	-0.1
O=C(O)CCc1ccc(-c2ccccc2)n1Cc1ccco1	.	1.6
Cn1c(=NC(=O)c2ccc(N3C(=O)CCC3=O)cc2)sc2ccccc21	1.3	0.15
CC(=O)Nc1ccc(C(=O)COc2ccc(-c3nnco3)cc2)cc1	.	-0.65
COc1ccc(S(=O)(=O)N2CCN(C(=O)c3cc4c(s3)CCC4)CC2)cc1	.	-0.9
CC1(C(=O)O)CCC(c2nc3c4ccccc4ncn3n2)C1(C)C (stereo not given)	.	-1.9
Cc1cc(-c2ccc(C3Nc4ccc5ccccc5c4C4=C3C(=O)CC(C)(C)C4)o2)c(C)c([N+](=O)[O-])c1 (stereo not given)	-0.075	.
CN(C)C(CNC(=O)Cn1cnc2ccccc2c1=O)c1ccccc1 (stereo not given)	.	1.1
O=C(O)CCC(=O)Nc1ccccc1Oc1ccc(Cl)cc1Cl	0	.
CC(=O)OC(C(=O)N(C)c1nnc(-c2ccc(C)cc2)s1)c1ccccc1 (stereo not given)	-0.14	-0.5
COC(=O)CNC(=O)c1cc2c(=O)oc3ccccc3c2s1	6.5	-1
S=c1nccc(-c2cc(-c3ccccc3)no2)[nH]1	0.23	-0.8
Cc1ccnc(SCC(=O)Nc2ccccc2)n1	.	-1.1
COC1CC2C(=O)OC(C(=O)O)C2C(OC)C1OC (stereo not given)	11	-0.75
O=S(=O)(CCSc1nccc(-c2ccc(Cl)cc2)n1)c1ccccc1	0.095	1.4

# Profiles as entered above:
# S=c1nccc(-c2cc(-c3ccccc3)no2)[nH]1 in the list: CapD inh: 0.23; AID504770: -0.8
# COC1CC2C(=O)OC(C(=O)O)C2C(OC)C1OC (stereo not given) in the list: CapD inh: 11; AID504770: -0.75
# O=C(O)CCC(=O)Nc1ccccc1Oc1ccc(Cl)cc1Cl in the list: CapD inh: 0; AID504770: .

# The list continues.
compound	CapD inh	AID504770
COC(=O)c1sccc1-c1ccc(-c2ccn(C(=O)c3cccs3)n2)o1	18	0.55
Nc1c(C(=O)Nc2ccccc2)sc2sc(C(=O)Nc3ccccc3)c(N)c12	-0.24	0.15
FC(F)(F)c1cccc(-c2noc(-c3ccsc3)n2)c1	0.44	0.85
Nc1ccccc1C(=O)OC1CSC1	57	-0.8
COc1ccc2cc3cc(C(=O)NCc4cc(Br)ccc4OC)oc3nc2c1	75	2.5
O=C(NCc1ccco1)C1CC1(c1ccccc1)c1ccccc1 (stereo not given)	0.43	-0.7
CC1CCc2c(sc3c2C2=NS(=O)(=O)CCN2C=N3)C1 (stereo not given)	.	-0.2
CN(S(=O)(=O)c1ccc(F)cc1)S(=O)(=O)c1ccc(Cl)cc1	0.19	0.25
COC(=O)c1ccc(COC(=O)c2csc3c2CCCC3)o1	.	0.4
COC(=O)c1c(-c2ccccc2)csc1N	-0.47	-0.75
FC(F)(F)c1cccc(NC(=S)N2CCCc3ccccc32)c1	-0.13	.
CCOC(=O)OC(C)OC(=O)[C@@H]1N2C(=O)[C@@H](NC(=O)[C@H](N)c3ccccc3)[C@H]2SC1(C)C (stereo not given in full)	-0.27	.
COc1ccccc1C(=O)Nc1cccc(-c2csc(-c3ccccc3)n2)c1	-0.86	0.3
O=C(Cn1ccn(-c2ccccc2)c(=O)c1=O)Nc1ccccc1	12	-0.55
COc1ccc(C2CC(=O)NC(NC(=S)NC(C)C)=N2)cc1 (stereo not given)	0.24	-0.4
C=C(C)CNC(=S)Nc1cc(Cl)ccc1Sc1nncn1C	.	-0.75
CCOC(=O)c1oc2ccccc2c1CN1CCN(C(=O)c2ccccc2)CC1	0.06	0.2

# Compound activity (PubChem)

# Hits appear at their usual frequency (roughly 0.39% active in at least one column).
